Compound activity deposited in PubChem by National Center for Advancing Translational Sciences (NCATS).
SmPrx2 inh = Schistosoma mansoni Prx2 inhibition; S. mansoni Prx2 activity coupled to TGR/GSH (TGR is thioredoxin glutathione reductase), NADPH fluorescence loss, qHTS; some inactives read as strong as hits; Potency, µM; 65,000 tested, 0.07% active; active means full or partial inhibition curve with a strong effect at the top dose; inconclusive means weaker partial or single-point curve; inactive means no accepted curve; also: series up to 57 µM; many of its hits are not listed in these tables
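Enzyme mix: 100 uM NADPH, 25 nM TGR, 700 uM GSH, 50 nM Prx2 in 100 mM phosphate pH 7.4, 10 mM EDTA, 0.01% Tween-20. 15 min RT with compound; NADPH/GSH added, H2O2 starts reaction; NADPH fluorescence read 8 min.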
LT uptake inh = blocks cellular internalization of anthrax lethal toxin; Cells, anthrax lethal toxin internalization, FRET ratio (460/530); Potency, µM (doses to about 40 µM), for inactives: top-dose activity change, negative = inhibition, most hits filed as inhibitors; 70,000 tested, 0.67% active; active = well fitted falling ratio curve with the 530 nm signal flat; inconclusive = other ratio curves, or a change in one channel alone; inactive = flat curves in the ratio and both channels; the % refers to the ratio; also: % is scaled to controls: 0 for no effect and ±100 for the full control effect; nearly all actives have a fitted effect of over 50% in size; tested in ME-180 cells; beta-lactamase reporter
Numbers without * were called inactive; ? = inconclusive; . = not tested or not shown; [ ] = dose if it differs, or a comment. Potency is read from the fitted curve at half-maximal effect. Only part of the results is shown; the hit share may differ from the screen's.

1	CCN(CC)C(=O)C1CCCN(C/C=C/c2ccccc2)C1 (centres undefined)
2	CC(=O)Nc1ccc(S(=O)(=O)Nc2ncccn2)cc1
3	COc1ccc2[nH]c3c(c2c1)CN(C)CC3
4	Cc1[nH]c(=O)[nH]c(=O)c1NS(=O)(=O)c1ccc2c(c1)CCCC2
5	CSc1nc(C)cc(OCNC(=O)c2cccs2)n1
6	Cc1cc(C)c2c(CN3CCN(Cc4ccc5c(c4)OCO5)CC3)cc(=O)oc2c1C
7	OC1(c2ccccc2F)CCN(Cc2nnnn2CCc2ccccc2)CC1
8	O=C(O)c1ccc(CN2CCCCC2)o1

Screen / compound no. | 1 | 2 | 3 | 4 | 5 | 6 | 7 | 8
SmPrx2 inh | . | . | >57 | >57 | >57 | >57 | >57 | >57
LT uptake inh | -8% | -3% | -30% | -3% | ? | ? | -6% | 13%

Continued; the last 2 above are carried over.
7	OC1(c2ccccc2F)CCN(Cc2nnnn2CCc2ccccc2)CC1
8	O=C(O)c1ccc(CN2CCCCC2)o1
9	O=C1CC(N(Cc2ccc3c(c2)OCO3)C(=O)Nc2ccc(F)cc2)C(=O)N1c1ccccc1 (centres undefined)
10	Cc1cc(C)nc(SCC(=O)Oc2ccc3oc(=O)cc(C)c3c2)n1
11	Nc1nc(=S)c2ncn([C@H]3O[C@@H](CO)[C@@H](O)[C@@H]3O)c2[nH]1
12	Cc1cnc(C(=O)OCC(=O)N2c3ccccc3NC(=O)C2(C)C)cn1
13	CC(=NCCc1ccccc1)C1=C(O)CSC1=O
14	COc1cccc(OC)c1C(=O)N1CCN(c2c(Cc3ccccc3)c(C)nc3ncnn23)CC1
15	Nc1nnc(CCc2ccccc2)s1
16	C=CCOC(=O)c1ccccc1N

Screen / compound no. | 7 | 8 | 9 | 10 | 11 | 12 | 13 | 14 | 15 | 16
SmPrx2 inh | >57 | >57 | >57 | . | >57 | >57 | . | >57 | . | .
LT uptake inh | -6% | 13% | ? | -9% | -5%[3.58 µM] | -7% | 26% | -17% | -11% | ?

17	O=C(O)c1ccccc1-c1ccccc1C(=O)c1ccccc1
18	O=C(c1cc2cc(Br)ccc2oc1=O)N1CCN(c2ccccn2)CC1
19	NS(=O)(=O)c1ccc(N=Nc2c(O)c(C(=O)O)cc3ccccc23)cc1
20	CCOC(=O)N1CCC(NC(=O)c2ccc3nc(N4CCOCC4)sc3c2)CC1
21	COCCNc1cc(-c2ccccc2C)ncn1
22	CC(=O)c1ccc(-n2nnnc2SCC(=O)N2CCN(C(=O)c3ccco3)CC2)cc1
23	C/C(=C\CNc1ncnc2c1ncn2[C@@H]1O[C@@H](CO)[C@@H](O)[C@H]1O)CO
24	COc1ccc(Cc2nnc(SCC(=O)NCc3ccco3)o2)cc1

Screen / compound no. | 17 | 18 | 19 | 20 | 21 | 22 | 23 | 24
SmPrx2 inh | >57 | >57 | >57 | >57 | >57 | >57 | >57 | >57
LT uptake inh | -1%[8 µM] | -1% | -11%[8 µM] | -21% | 3% | -19% | 16% | .

25	CC(C)Cn1cc(C(=O)N2CCOCC2)c2c3ccccc3n(C)c2c1=O
26	Cn1c(SCC(=O)Nc2ccc3c(c2)OCCO3)nnc1-c1ccco1
27	CC1CCCCC1NC(=O)CSc1nncs1 (centres undefined)
28	CCOC(=O)c1oc2ccc(Br)cc2c1CSc1nnc(C)s1
29	CCCC(=O)N1CCN(S(=O)(=O)c2cc(Cl)ccc2OC)CC1
30	Cc1ccc(OCC(=O)N2CCN(C(=O)c3cccs3)CC2)cc1
31	COc1cc(Cl)c(S(=O)(=O)n2cnc(C)c2)cc1Cl
32	COCc1[nH]nc2c1C(C1C=CCCC1)C(C#N)=C(N)O2 (centres undefined)

Screen / compound no. | 25 | 26 | 27 | 28 | 29 | 30 | 31 | 32
SmPrx2 inh | >57 | >57 | >57 | >57 | >57 | >57 | . | >57
LT uptake inh | 6% | 4% | -6% | -6% | 15% | 1% | 0% | .

33	COC(=O)c1ccc(C(NC(=O)OCc2ccccc2)/C(=C/[C@@H](C)C(=O)NCc2ccncc2)c2cccnc2)cc1 (some centres undefined)
34	COc1ccc(C(CC(=O)O)NC(=O)c2ccco2)cc1OC (centres undefined)
35	COc1cccc(C(=O)Nc2nnc(C(C)C)s2)c1
36	O=C(Nc1c(C(=O)Nc2ccc3c(c2)OCCO3)cnn1-c1ccccc1Cl)c1ccco1
37	O=C(COc1ccccc1)Nc1ncc2c(n1)CCCC2=O
38	Cc1c(C(=O)O)nnn1-c1ccccc1
39	Cc1noc(NS(=O)(=O)c2ccc(NC(=O)CCn3c(=O)oc4ccccc43)cc2)c1C
40	Cn1c(=O)c2cc(NCc3ccccc3)nnc2n(C)c1=O

Screen / compound no. | 33 | 34 | 35 | 36 | 37 | 38 | 39 | 40
SmPrx2 inh | . | >57 | >57 | >57 | >57 | >57 | ? | >57
LT uptake inh | 14% | 1% | -6% | -4% | -3% | -7% | -9% | ?

41	CCOc1ccc(Cc2nnc(SCC(=O)c3ccc(OC)cc3)o2)cc1
42	O=C(CN1CCN(S(=O)(=O)c2ccc(F)cc2)CC1)Nc1ccc2c(c1)OCO2
43	CCOC(=O)c1cc(-c2ccccc2)n(CC(=O)O)c1C
44	Cc1cc(C2CCCCC2)n(O)c(=O)c1
45	O=C(CCCc1c[nH]c2ccccc12)N1CCN(S(=O)(=O)c2cccs2)CC1
46	CCc1ccc(N(CC(=O)NC)S(C)(=O)=O)cc1
47	COC(=O)[C@H](Cc1ccccc1)NC(=O)[C@@H](C)CO
48	Cc1ccc(S(=O)(=O)N2CCN(C(=O)CN3C(=O)NC4(CCOc5ccccc54)C3=O)CC2)cc1 (centres undefined)

Screen / compound no. | 41 | 42 | 43 | 44 | 45 | 46 | 47 | 48
SmPrx2 inh | >57 | >57 | >57 | >57 | >57 | >57 | . | >57
LT uptake inh | 3% | -3% | 1% | -5%[3.58 µM] | -14% | -5% | 6%[1.6 µM] | 1%

49	CN(C)CCn1c(C(=O)Nc2ccccc2)cc2ccccc21
50	COC(=O)N1CCC2(CCCN(Cc3ccccc3)C2)CC1
51	CC(C)(C)OC(=O)[C@H]([C@@H]1N[C@@H](C(=O)O)C(C)(C)S1)N1C(=O)c2ccccc2C1=O
52	Cc1ccc(Cn2c(SCCN3CCOCC3)nc3c2c(=O)n(C)c(=O)n3C)cc1
53	O=C(O)[C@H](/C=C\c1ccccc1)c1ccccc1
54	N#Cc1cc2c(nc1SCc1cccnc1)CCCC2
55	NC(=O)CSc1nnc(Cc2csc(Nc3ccccc3)n2)n1Cc1ccccc1
56	COCCN1CSC(=S)N(Cc2ccco2)C1

Screen / compound no. | 49 | 50 | 51 | 52 | 53 | 54 | 55 | 56
SmPrx2 inh | >57 | >57 | >57 | >57 | >57 | >57 | >57 | >57
LT uptake inh | -6% | ? | ? | -8% | ? | -7% | -8% | ?

57	O=C(c1ccncc1)N1CCC2(CCCN(c3ccc(-c4ccccc4)cc3)C2)CC1
58	COc1ccccc1NC(=O)CSc1nnc(C2CCCCC2)n1C
59	CCn1c(=O)cc(SCC(=O)NCCN2CCN(Cc3ccccc3)CC2)c2ccccc21
60	CS(=O)(=O)N1CCC[C@@]2(CCN(C(=O)Nc3cccc(F)c3)C2)C1
61	CC12CCC(C(=O)Nc3ccccc3N3CCOCC3)(CC1=O)C2(C)C (centres undefined)
62	CCC1Sc2ccccc2N(CC(=O)NCCC(C)C)C1=O (centres undefined)
63	O=C(O)c1cc(NCc2cccs2)ccc1N1CCOCC1
64	Cn1c(SCC(=O)Nc2ccccc2F)nnc1-c1cccnc1

Screen / compound no. | 57 | 58 | 59 | 60 | 61 | 62 | 63 | 64
SmPrx2 inh | >57 | >57 | >57 | >57 | . | >57 | >57 | >57
LT uptake inh | -15% | . | -19% | 9% | ? | ? | -10% | 7%

65	O=c1c2[nH]c3ccc(Cl)cc3c2ncn1CCN1CCCCC1
66	Fc1ccccc1N1CCN(c2nc3ccccc3n3nnnc23)CC1
67	COc1ccc(Cc2nc(-c3ccc(Br)o3)no2)cc1OC
68	CCOC(=O)CCCCC1=CC2=CC(=O)C(C)(O)C(=O)C2=CO1 (centres undefined)
69	CCCCNc1nc(C)nc2c1nc(-c1ccccc1)n2CCCCN(CC)CC
70	O=C(Oc1ccccc1)N1CCC2(CCCN(c3ccncc3)C2)CC1
71	Cc1ccc(N(C(=O)CCC(=O)Nc2cc(C)on2)C(C(=O)NC2CCCC2)c2ccncc2)cc1 (centres undefined)
72	N#Cc1nc(COc2ccc(F)cc2)oc1N1CCCC1

Screen / compound no. | 65 | 66 | 67 | 68 | 69 | 70 | 71 | 72
SmPrx2 inh | >57 | >57 | >57 | . | . | >57 | >57 | >57
LT uptake inh | -13% | 9% | ? | -8%[8 µM] | ? | ? | -6% | -12%

73	COC(=O)c1cc2oc(C)cc2n1CC(=O)N(C)c1ccccc1
74	CC1CN(C(c2ccco2)c2sc3ncnn3c2O)CC(C)O1 (centres undefined)
75	CC(Oc1ccccc1)C(=O)NCc1cccnc1 (centres undefined)
76	COc1ccc(C2C(C(=O)NCC3CCCO3)CCC(=O)N2c2ccc3c(c2)OCO3)cc1 (centres undefined)
77	O=C(Oc1ccccc1)N1CCC[C@@]2(CCN(C(c3ccccc3)c3ccccc3)C2)C1
78	COC(=O)C1(C)C=C2C(=C(c3ccccc3)C(=O)C2C)CN1 (centres undefined)
79	COc1cccc(C2NC(CC(C)C)(C(=O)O)C3C(=O)N(Cc4ccccc4)C(=O)C23)c1O (centres undefined)
80	CC(CN1CCCCC1)OC(=O)c1ccccc1Cl (centres undefined)

Screen / compound no. | 73 | 74 | 75 | 76 | 77 | 78 | 79 | 80
SmPrx2 inh | >57 | >57 | >57 | >57 | >57 | >11 | >57 | >57
LT uptake inh | -11% | 3% | -7% | 0% | -6% | ? | 5% | -6%

81	Cc1[nH]n(-c2ccccc2)c(=O)c1S(=O)(=O)c1ccccc1
82	O=C(COc1ccccc1)NC1CCN(Cc2ccccc2)CC1
83	COc1ccc(C(=O)c2coc3ccc(O)c(CN4CCOCC4)c23)cc1
84	COC(=O)c1ccc(NC(=O)c2ccc3c(c2)OCO3)cc1
85	O=C1CCC(=O)N1c1cccc(-c2nc3ccccc3o2)c1
86	O=C(c1c(Cl)nc2sccn12)N1CCCc2ccccc21
87	CCS(=O)(=O)c1ccc(O)c(N2C(=O)C3C4C=CC(C4)C3C2=O)c1 (centres undefined)
88	CN1CCc2c(sc3c2C(=O)NC(c2cccc(OC(=O)c4cccs4)c2)N3)C1 (centres undefined)

Screen / compound no. | 81 | 82 | 83 | 84 | 85 | 86 | 87 | 88
SmPrx2 inh | >57 | >57 | >57 | >57 | >57 | >57 | >57 | >57
LT uptake inh | ? | -11% | -4% | 14% | 1% | -18% | -12% | ?

Exported with bars between the fields: part of the list above
# | Molecule | SmPrx2 inh | LT uptake inh
81 | Cc1[nH]n(-c2ccccc2)c(=O)c1S(=O)(=O)c1ccccc1 | >57 | ?
82 | O=C(COc1ccccc1)NC1CCN(Cc2ccccc2)CC1 | >57 | -11%
83 | COc1ccc(C(=O)c2coc3ccc(O)c(CN4CCOCC4)c23)cc1 | >57 | -4%
84 | COC(=O)c1ccc(NC(=O)c2ccc3c(c2)OCO3)cc1 | >57 | 14%
85 | O=C1CCC(=O)N1c1cccc(-c2nc3ccccc3o2)c1 | >57 | 1%

(list continues)
89	CC1CCC(NS(=O)(=O)c2ccc3c(c2)n(C)c(=O)c(=O)n3C)CC1 (centres undefined)
90	CCN1CCN(C(=O)c2cnn3c(C(F)F)cc(-c4ccc(C)cc4)nc23)CC1
91	CN1C(=O)NC(c2ccc(O)cc2)C(C(=O)c2cccs2)C1(O)C(F)(F)F (centres undefined)
92	COc1cccc(CN2C(=O)C3(C(C#N)=C(N)OC4=C3C(=O)CCC4)c3ccccc32)c1 (centres undefined)
93	CCOc1ccc(C2CC(c3ccc(F)cc3)Nc3nc(N)nn32)cc1 (centres undefined)
94	CCn1c(=O)cc(OCC(=O)Nc2cc(C)ccn2)c2ccccc21
95	Cc1ccc2c(c1)CCCN2C(=O)C1CCCO1 (centres undefined)
96	O=S1(=O)CCC(S(=O)(=O)N2CCCCCC2)C1 (centres undefined)
97	CCCC(c1nnnn1CCc1ccccc1)N1CCN(C2CCCC2)CC1 (centres undefined)
98	C=CCN1C(=O)/C(=C2/Sc3ccccc3N2CCCS(=O)(=O)O)SC1=S

Screen / compound no. | 89 | 90 | 91 | 92 | 93 | 94 | 95 | 96 | 97 | 98
SmPrx2 inh | >57 | >57 | >57 | >57 | >57 | >57 | >57 | >57 | >57 | >57
LT uptake inh | -5% | -5% | 10% | -12% | 6% | -4% | 1% | 3% | -27% | ?

Rewritten with bars between the fields: 2 of the compounds above.
entry | Structure | SmPrx2 inh | LT uptake inh
82 | O=C(COc1ccccc1)NC1CCN(Cc2ccccc2)CC1 | >57 | -11%
72 | N#Cc1nc(COc2ccc(F)cc2)oc1N1CCCC1 | >57 | -12%
